High-throughput results as filed in PubChem.
Choline anaer gr = growth inhibitors of anaerobic choline-fed gram-negatives, minimal medium, absorbance | 55,000 compounds, 0.2% hits | calls only | Gram-negative bacterium anaerobic choline minimal medium; stronger effect = lower value; many inactives read as strong as hits in the columns shown;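 active means growth z-score on choline under -2 at 7 or 20 h with little or no fall on glycerol, limits in tiers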;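 further: stock transfer was 300 nL into about 50 µL; the organism is E. coli; final concentration not given here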
Choline anaer gr early = also measured in Choline anaer gr; calls as there; z-score; measured here: choline growth z-score, timepoint 1;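 score of optical density at 7 h as mean of two plates; lower means less growth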
* marks the source's active call; other numbers are inactive results; i = inactive; & = joins results of further samples.

SMILES	Choline anaer gr	Choline anaer gr early
COCCNCC1C(Oc2ccc(Cl)cc2)C(=O)N1c1ccccc1C (stereo unspecified)	i	0.23
Cn1cnnc1C1CCCN(Cc2ccc(F)cc2Cl)C1 (stereo unspecified)	i	-0.43
CCOC(=O)c1[nH]c(C)c(CN(Cc2ccc(C)cc2)S(=O)(=O)c2ccccc2Cl)c1C	i	0.86
CCCc1nc2nc[nH]n2c(=O)c1NC(=O)Nc1ccc2c(c1)OCO2	i	-0.34
COc1cc2c(cc1OC)C(C(=O)O)C(c1cc(Br)c(O)c(OC)c1)N(C)C2=O (stereo unspecified)	i	-0.78
CCC(C)(C)C(=O)NC1CCN(C2=NS(=O)(=O)C(c3ccc(F)cc3)=C2C)CC1	i	-1.4
Cc1ccc(-c2ccc(-n3nc(C)c(S(=O)(=O)N4CCCC(C)C4)c3C)nn2)cc1 (stereo unspecified)	i	0.17
COc1ccccc1Nc1ncc(C(=O)NCCc2ccc(Cl)cc2)c2ccccc12	i	0.22
Cn1c(N2CCC(C(=O)Nc3ccccc3F)CC2)cc(=O)n(C)c1=O	i	1.04
O=C(NCc1ccc(Cl)cc1)c1ccc(-c2cnc(NC3CCCCC3)nc2)cc1	i	0.59
COc1ccccc1-c1noc(CCn2nc(-c3ccc4c(c3)OCO4)ccc2=O)n1	i	0.03
Cc1nc2nc(N(Cc3ccccc3)C(=O)C(C)C)[nH]n2c(=O)c1C	i	-0.42
Cc1ccc(-n2nnc(C(=O)OCc3ccc(Cl)cc3)c2C)cc1C	i	-0.14
COC(=O)c1ccc(NC(=O)c2sc3nc(C)cc(=O)n3c2C(=O)Nc2ccccc2C)cc1	i	-0.5
O=C(CSc1nc2cc(-c3ccccc3)[nH]c2c(=O)n1Cc1ccccc1)Nc1ccc2c(c1)OCO2	i	0.44
Cc1noc(C)c1CCN(C)c1ccc(NC(=O)c2ccc(Br)cc2)cc1C(=O)O	i	-0.1
COc1cccc2sc(N(CCCN(C)C)C(=O)c3cccc(Cl)c3)nc12	i	1.04
Cc1csc(NC(=O)CCc2nc(-c3nn(-c4ccccc4)c(=O)n(C)c3=O)no2)n1	i	0.21
COc1cc(CNCCc2ccc(F)cc2)ccc1OCc1ccc2c(c1)n(C)c(=O)n2C	i	-0.34
Cc1sc(-c2noc(C3CCC3)n2)cc1NC(=O)c1cncc(Br)c1	i	1.12
COc1ccc(NC(=O)C2CCCN(c3nccnc3Sc3ccc(C)cc3)C2)cc1OC (stereo unspecified)	i	1.63
Cc1cc(C(=O)N2CCc3ccccc3C2)no1	i	-0.95
Cc1ccc(CNC(=O)c2ccc(NCc3ccc(C)cc3)c(S(=O)(=O)N3CCOCC3)c2)cc1	i	1.27
COCCNC(=O)c1ccc(N2CCCS2(=O)=O)cc1	i	-0.46
CC(C)CNC(=O)N1CCCC1c1cc(C(C)C)on1 (stereo unspecified)	i	0.74
COc1cccc(Nc2nc(C)c3nnn(-c4cccc(OC)c4)c3n2)c1	i	1.14
CCOC(=O)C1CCCN(C(=O)CCCn2nc(C)c3nn(-c4ccccc4)c(-n4cccc4)c3c2=O)C1 (stereo unspecified)	i	0
Cc1ccc(CNC2=NCCNC23CCN(S(=O)(=O)c2ccccc2C)CC3)cc1	i	0.17
Nc1nc(SCCc2ccccc2)ns1	i	-1.6
COc1ccc(N2CCN(C(=O)c3cc(S(=O)(=O)N4CCCC4)ccc3Cl)CC2)cc1	i	0.97
C=CCNC(=O)C1=Cc2cc(Br)ccc2OC=C1	i	-0.5
CCCNC(=O)Cn1c(=O)c(OCC)nc2cccnc21	i	-1.08
Cc1cc(N2CCOCC2)nc(N2CCC(C(=O)O)CC2)n1	i	1.52
NS(=O)(=O)c1ccc(CCN[C@H]2CS(=O)(=O)C[C@@H]2S(=O)(=O)c2ccccc2)cc1	i	-1.21
CCCc1cc(=O)[nH]c(Nc2ccc(Br)cc2)n1	i	-0.63
Cc1cc(N2CCC(C)CC2)n2nc(Cc3ccccc3)nc2n1	i	0.28
CCN(CC)c1ccc(C2CC(c3c(O)n(C)c(=S)n(C)c3=O)=NN2C(C)=O)cc1 (stereo unspecified)	i	-1.28
Cc1cccc(-c2nc3nc(C)cc(NCCO)n3n2)c1	i	0.48
O=C(NCCCN1CCCCC1)C1CCN(c2cncnc2N2CCOCC2)CC1	i	-0.11
Fc1ccc(N2CCN(c3nccn4nc(-c5ccc(Cl)cc5)cc34)CC2)cc1	i	0.29
Cc1cc(C)cc(NS(=O)(=O)c2cn(C)cn2)c1	i	-0.88
CCc1nc2ccccc2n1CC(O)COc1ccccc1C (stereo unspecified)	i	0.41
Cc1ccc(S(=O)(=O)Nc2cccc(C(=O)N3CCC(C(=O)NCCC(C)C)CC3)c2)cc1	i	-1.1
CCOc1cccc2c1Oc1[nH]n(-c3ccc(CC)cc3)c(=O)c1C2	i	1.37
Cc1ccc(C(=O)Nc2ccc3nc(N4CCN(c5ccccc5)CC4)cc(C(=O)O)c3c2)cc1	i	-0.75

By substructure: the entries above containing an aryl methoxy group
SMILES	Choline anaer gr	Choline anaer gr early
COc1cc2c(cc1OC)C(C(=O)O)C(c1cc(Br)c(O)c(OC)c1)N(C)C2=O (stereo unspecified)	i	-0.78
COc1ccccc1Nc1ncc(C(=O)NCCc2ccc(Cl)cc2)c2ccccc12	i	0.22
COc1ccccc1-c1noc(CCn2nc(-c3ccc4c(c3)OCO4)ccc2=O)n1	i	0.03
COc1cccc2sc(N(CCCN(C)C)C(=O)c3cccc(Cl)c3)nc12	i	1.04
COc1cc(CNCCc2ccc(F)cc2)ccc1OCc1ccc2c(c1)n(C)c(=O)n2C	i	-0.34
COc1ccc(NC(=O)C2CCCN(c3nccnc3Sc3ccc(C)cc3)C2)cc1OC (stereo unspecified)	i	1.63
COc1cccc(Nc2nc(C)c3nnn(-c4cccc(OC)c4)c3n2)c1	i	1.14
COc1ccc(N2CCN(C(=O)c3cc(S(=O)(=O)N4CCCC4)ccc3Cl)CC2)cc1	i	0.97

Other structures:
SMILES	Choline anaer gr	Choline anaer gr early
CCCCNc1nc2c(-c3ccccc3)nnn2c2ccccc12	i	-0.07
Cn1c(=O)c(=O)n(C)c2cc(S(=O)(=O)C3CCCCC3)c(NC(=O)c3ccccc3)cc21	i	0.24
Cc1ccc(-c2[nH]ncc2CN2CCCC2c2cc(C(C)C)on2)cc1C (stereo unspecified)	i	-0.3
Brc1ccc(-c2csc(Cc3nc(-c4ccccc4)no3)n2)cc1	i	1.59
O=C(Nc1cccc(C(=O)N2CCCC(C(=O)NCC3CCCO3)C2)c1)c1ccccc1F (stereo unspecified)	i	-0.17
CCCCCC1OC(O)CC1SC[C@H](NC(C)=O)C(=O)O (stereo partly specified)	i	-0.92
CCOC(=O)c1cnc(SCC)nc1N	i	0.75
O=C(Cn1nc2c3sc(N4CCCCC4)nc3ncn2c1=O)Nc1cccc(Br)c1	i	-0.38
O=C(Cn1cnc2nc3c(cc2c1=O)CCCC3)Nc1ccc(F)cc1Cl	i	1.11
CC(=O)N1CCCSc2ccc(S(=O)(=O)Nc3ccc4c(c3)OCO4)cc21	i	-1.48
O=C1CCCc2cc(S(=O)(=O)N3CCCC(C(=O)NCc4cccnc4)C3)ccc2N1 (stereo unspecified)	i	0.4
O=c1c2cc(Cl)ccc2oc2cc(O)cc(O)c12	i	0.67
CN1C(=O)C(c2c(-c3ccc(Cl)cc3)[nH]c3c2c(=O)n(C)c(=O)n3C)c2ccccc21 (stereo unspecified)	i	-0.29
COc1ccccc1Nc1nc2ccc(C)cc2n2nnnc12	i	1.51
O=C(Nc1ccc(N2CCOCC2)cc1)c1ccc(Nc2ccnc(-c3ccc(F)cc3)n2)cc1	i	0.5

Single records, from the list above.
O=C(NCc1ccc(Cl)cc1)c1ccc(-c2cnc(NC3CCCCC3)nc2)cc1 is entered as Choline anaer gr: i; Choline anaer gr early: 0.59
CCCc1cc(=O)[nH]c(Nc2ccc(Br)cc2)n1 is entered as Choline anaer gr: i; Choline anaer gr early: -0.63

Remaining list, next part
SMILES	Choline anaer gr	Choline anaer gr early
COc1ccc(C(=O)Nc2ccc3c(c2)N(C)C(=O)c2ccccc2O3)c(OC)c1	i	-0.21
COc1ccccc1NC(=O)CSc1nnc2c3cc(-c4ccccc4)nn3ccn12	i	-0.17
Cc1ccc(C(=O)Nc2ccc3c(c2)CC(=O)N3C)cc1	i	-0.49
Cc1ccc(-c2cc3c(=O)n(Cc4nc(-c5ccc(F)cc5)no4)ccn3n2)cc1	i	1.21
Fc1ccc(-c2nnc3ccc(N4CCN(c5ccccc5)CC4)nn23)cc1	i	-0.12
COc1cc(-c2noc(-c3ccccc3C)n2)ccc1OCC(=O)NCc1ccc(C)cc1	i	4.63
CC(C)NC(=O)N1CCC(c2nc(C(C)C)cs2)CC1	i	0.56
COc1ccc(-c2cc(=O)c3c(OC)c(OC)c(OC)c(OC)c3o2)cc1OC	i	0.73&0.61
CCOC(=O)c1c(NC(=O)c2ccccc2)sc2c1CCN(C(C)C)C2	i	-0.78
Cc1nc(CCNC(=O)[C@H]2CCCN2C(=O)c2cccc(Cl)c2)cs1	i	0.94
CC(C)Cn1cnc2nc(CSc3ccccc3NC(=O)Nc3ccccc3)cc(=O)n21	i	0.34
CCCCOc1ccc(-c2cc3c(=O)n(CC(=O)Nc4ccc(Br)cc4)ccn3n2)cc1	i	0.48
C[C@@H]1NC(=O)NC1=O	i	0.59
O=C(Nc1cccc(F)c1)c1ccc(-n2nnc3cccnc32)cc1	i	-0.04
Cn1c(=O)c2sccc2n2c(SCc3ccc(Cl)cc3)nnc12	i	-0.94
COc1cc(C2CC(=O)C3=C(C2)Nc2onc(C)c2C3c2cccc(C)c2)ccc1O (stereo unspecified)	i	0.4
CCc1nnc2n1NC(c1ccccc1)C(C(=O)Nc1ccc(C)cc1C)S2 (stereo unspecified)	i	-0.55
COC(=O)c1cc2ccsc2n1CC(=O)Nc1ccccc1Cl	i	0.5
Cc1ccc(OCc2cc(=O)n3oc(C)cc3n2)c(NC(=O)C(C)(C)C)c1	i	1.24
COc1ccc(S(=O)(=O)NCCn2c(-c3ccncc3)nc3cccnc32)cc1	i	-0.66
Cc1cccc(C)c1OCc1nc2c3c4c(sc3ncn2n1)CCCC4	i	0.47
CCCN1CCN(S(=O)(=O)c2cc(-c3cnn4c(C)cc(C)nc34)ccc2C)CC1	i	-2.8
COc1ccc(Br)cc1C(=O)Nc1cc2c(cc1SC(C)C)n(C)c(=O)n2C	i	-0.33
CCOc1ccc2nc(N3CCCC(C(=O)N4CCC(Cc5ccccc5)CC4)C3)sc2c1 (stereo unspecified)	i	0.53
CO[C@@H]1[C@H](O)[C@@H](CO)O[C@H]1n1cnc2c(NC3CCCCC3)ncnc21	i	0.17
COc1ccc(CCN(C)CCc2ccc(OC)c(OC)c2)cc1OC	i	0.51&0.98&0.61
CCc1ccc2oc(C(=O)NCC(c3ccc(C(C)(C)C)cc3)N3CCOCC3)cc(=O)c2c1 (stereo unspecified)	i	0.71
CC(NC(=O)CCn1cnc2onc(-c3cccc(F)c3)c2c1=O)c1ccccc1 (stereo unspecified)	i	0.25
COc1cccc(N2CCN(C(=O)CCn3cnc4ccccc4c3=O)CC2)c1	i	-0.34
Cc1ccc(S(=O)(=O)N2CCN(C(=O)c3nsc4ccc(C)cc34)CC2)c(C)c1	i	1.51
CC1=C(C(=O)Nc2cccc(C(=O)N3CCC(Cc4ccccc4)CC3)c2)SCCO1	i	1.66
CC(=O)Nc1ccc(-c2nc3ccc(NC(C)=O)cc3o2)cc1	i	-1.98
CO[C@@H]1[C@@H](OC(N)=O)[C@H](O)[C@H](Oc2ccc3c(O)c(NC(=O)c4ccc(O)c(CC=C(C)C)c4)c(=O)oc3c2C)OC1(C)C	i	-1.5
COC(=O)c1ccccc1NC(=O)N1CC=C(c2c[nH]c3ccccc23)CC1	i	-0.42
COc1ccc(-c2cc(N3CCN(C(=O)COc4ccc(Cl)cc4)CC3)ncn2)cc1	i	-0.62
Cc1cccc(-n2c(-c3ccccc3)cn3c4c(=O)[nH]c(=O)n(C)c4nc23)c1	i	1.18
CCCn1nnc2cc(S(=O)(=O)N3CCCC(C(=O)N4CCN(c5ccccn5)CC4)C3)ccc21 (stereo unspecified)	i	0.55
Cc1[nH]c(C)c(S(=O)(=O)N2CCC(C(=O)Nc3cc(F)ccc3F)CC2)c1C(=O)N1CCCCC1	i	0.24
O=C(NCCc1c[nH]c2ccc(F)cc12)c1cn(-c2ccc(F)cc2)nn1	i	0.98
C=CCNC(=O)CN1C(=O)C2CCCCN2c2ccc(C(=O)N3CCCC3)cc21 (stereo unspecified)	i	0.32
COc1ccc(Br)cc1C1CC(=O)Nc2c1c(C)nn2-c1nc2ccccc2[nH]1 (stereo unspecified)	i	0.7
O=C(NCc1ccccc1Cl)C1CCn2c(nc3ccccc32)C1 (stereo unspecified)	i	-0.88
O=C(c1ccccc1)N1CCN(Cc2cc(=O)n3nc(-c4ccc(F)cc4)sc3n2)CC1	i	-0.09
Cc1cc(C)cc(NC(=O)Nc2cc(Cl)ccc2OCc2cc(=O)n3c(ncn3C(C)C)n2)c1	i	-1.34
CCCN(C)S(=O)(=O)c1c(C)[nH]c(-c2nnc(C3CCC3)o2)c1C	i	0.59
Cc1[nH]c2ccccc2c1/C=C/c1nc2ccccc2c(=O)n1CCCO	i	-0.13
CC(C)Cn1c(=O)c(N2CCC(NC(=O)Nc3ccc4c(c3)OCO4)CC2)nc2ccccc21	i	0.14
CC(Oc1ccccc1F)C(=O)Nc1ccc2c(c1)NC(=O)CO2 (stereo unspecified)	i	-0.1
CC1CCN(S(=O)(=O)c2cccn(Cc3cc(F)cc(F)c3)c2=O)CC1	i	0.22
CC(C)C(=O)N1CCc2c(c(C(=O)N3CCC(C(=O)N4CCOCC4)CC3)nn2C)C1	i	-0.12
Cc1ccc2nc(-c3cc(NC(=O)c4ccc5c(c4)OCCO5)ccc3Cl)oc2c1	i	0.97

A portion of the library, so the mix of outcomes need not match the whole.
